Screening data deposited in PubChem BioAssay by National Center for Advancing Translational Sciences (NCATS).
Cruzain noTriton: inhibitors of Trypanosoma cruzi cruzain without detergent | actives 2.3% (n = 200,000) | Potency, µM, without a hit: max response, negative = inhibition, actives largely listed as inhibitors | purified cruzain, Z-FR-AMC fluorescence, no detergent | P25779;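 also: plate controls were enzyme without inhibitor for no effect and buffer without enzyme for full effect; nearly all actives have a fitted effect of over 40% in size; top concentration of the series not given in the record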
Target sequence (P25779 123-467 limits assumed): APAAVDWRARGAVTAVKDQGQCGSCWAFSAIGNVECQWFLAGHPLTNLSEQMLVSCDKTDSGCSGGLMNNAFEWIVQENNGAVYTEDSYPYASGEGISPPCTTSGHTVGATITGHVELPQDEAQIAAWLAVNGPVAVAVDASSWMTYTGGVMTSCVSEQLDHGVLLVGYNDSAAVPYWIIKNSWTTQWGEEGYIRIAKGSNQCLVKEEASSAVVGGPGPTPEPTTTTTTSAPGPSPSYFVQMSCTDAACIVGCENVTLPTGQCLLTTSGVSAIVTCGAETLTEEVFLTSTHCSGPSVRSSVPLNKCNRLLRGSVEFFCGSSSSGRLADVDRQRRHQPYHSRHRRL
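Detergent-free condition (0.00005% Triton X-100) in acetate buffer pH 5.5 with DTT. 1.5 nM enzyme and compound were pre-mixed 15 min, then 2 uM Z-FR-AMC substrate added; reaction progress from fluorescence change between first and third reads (60 s).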
SARS PLpro yeast: blocks SARS-CoV papain-like protease in a yeast assay | S. cerevisiae expressing SARS-CoV PLpro, growth rescue; control for the full effect not named in the record | Potency, µM (titrated, usually from 32.9 µM), without a hit: at the top dose activity, positive = growth rescue | actives 0.19% (n = 330,000); active means well fitted rising curve with a large enough effect; inconclusive means small, poorly fitted or top-dose-only effect; inactive means no such curve, though single readings can be large or run the other way; also: 0% is about no effect; nearly all actives have a fitted effect of over 55% in size; growth read by luminescence after 48 h
RE007 growth inh: less growth of the S. pombe RE007 Vpr strain; S. pombe RE007 Vpr strain, BacTiter-Glo ATP luminescence, 24 h; control for the full effect not named in the record; Potency, µM (highest dose often 92.2 µM), for inactives: at the top dose activity change, negative = less growth; AID 651644; actives 0.21% (n = 360,000); active = well fitted falling curve with a large enough effect; inconclusive = small, poorly fitted or top-dose-only effect; inactive = no such curve, though single readings can be large or run the other way;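 also: % is scaled to controls: 0 for no effect and ±100 for the full control effect; nearly all actives have a fitted effect of over 50% in size; the assay follows cell death caused by Vpr and the record does not say whether a fall means rescue or toxicity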
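Fission yeast RE007 carrying one integrated HIV-1 vpr copy, seeded at OD 0.01 in PMG+AL medium with 23 nL pinned compound. Grown 24 h at 30 degrees; viability read by BacTiter-Glo luminescence after 5 min.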
LASV entry inh: Lassa virus entry inhibition; Lassa virus pseudotype entry inhibition, cell reporter; control for the full effect not named in the record; Potency, µM (titrated, usually from 37.9 µM), without a hit: at the top dose activity change, negative = inhibition, most hits filed as inhibitors; actives 1.2% (n = 300,000); active means well fitted inhibition curve with a large enough effect; inconclusive means small, poorly fitted or top-dose-only effect, or effect the other way; inactive means flat fitted curve, though single readings scatter; tested in HEK293 cells; also: % is scaled to controls: 0 for no effect and ±100 for the full control effect; nearly all actives have a fitted effect of over 50% in size; luciferase read-out
StopGo reporter: FMDV 2A StopGo reporter, luciferase signal. human cells with a luciferase reporter of 2A StopGo recoding; control for the full effect not named in the record. Potency, µM (titrated, usually from 57.9 µM), inactives show top-dose signal change, negative = less light. actives 1.2% (n = 410,000). AID 1159524; active = well fitted falling curve with a large enough effect; inconclusive = small, poorly fitted or top-dose-only effect; inactive = no such curve, though single readings can be large or run the other way; tested in HEK293T cells; also: % is scaled to controls: 0 for no effect and ±100 for the full control effect; nearly all actives have a fitted effect of over 45% in size; luciferase light after 4 h
NS1 function inh: blocks influenza NS1 protein function; S. cerevisiae slowed by influenza A NS1, growth recovery by OD600; Potency, µM (doses to about 46.1 µM), for inactives: top-dose activity, positive = more growth; actives 0.4% (n = 270,000); AID 2326; active means well fitted rising curve with a large enough effect; inconclusive means small, poorly fitted or top-dose-only effect; inactive means no such curve, though single readings can be large or run the other way; also: nearly all actives have a fitted effect of over 50% in size
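A cell-based growth assay was used: compounds that relieve NS1-induced slow growth of budding yeast raise OD600. Assay medium was yeast nitrogen base with ammonium sulphate and -URA supplement, pH 6.0, with 2% galactose.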
MARV entry inh: blocks Marburg virus binding to or entry into cells; Marburg virus pseudotyped entry inhibition, cell reporter; control for the full effect not named in the record; about a third of the inactives were read at about 46 µM; Potency, µM (top dose mostly 37.8 µM), without a hit: at the highest dose activity change, negative = inhibition, hits mostly inhibitors; actives 1.8% (n = 300,000); active = well fitted inhibition curve with a large enough effect; inconclusive = small, poorly fitted or top-dose-only effect, or effect the other way; inactive = flat fitted curve, though single readings scatter; tested in HEK293 cells; about a fifth of its hits are not listed in these tables; also: % is scaled to controls: 0 for no effect and ±100 for the full control effect; luciferase read-out
Cruzain inh Det: inhibitors of Trypanosoma cruzi cruzain with detergent; P25779; purified cruzain, Z-FR-AMC fluorescence, 0.01% Triton; Potency, µM, for inactives: max response, negative = inhibition, usual class: inhibitors; actives 0.43% (n = 200,000); AID 1478;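 also: plate controls were neutral wells for no effect and buffer without enzyme for full effect; nearly all actives have a fitted effect of over 40% in size; top concentration of the series not given in the record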
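Z-FR-AMC hydrolysis (2 uM substrate) by cruzain (1.5 nM) monitored kinetically at ex 360/em 450 nm after 15 min room-temperature compound exposure; 0.01% Triton X-100, pH 5.5, 5 mM DTT.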
Numbers without * were called inactive; ? = inconclusive; . = not tested or not shown; [ ] = dose if it differs, or a comment. Unless noted, calls follow the shape of the dose curve; as a rule, active = well fitted curve in the direction sought with a large enough effect; inconclusive = small, poorly fitted or top-dose-only effect, or another doubt; inactive = no such curve, though single readings can be large; an effect the other way counts as inactive or inconclusive. Potency is read from the fitted curve at half-maximal effect.

The opening 2 compounds as a preview:
SMILES	Cruzain noTriton	SARS PLpro yeast	RE007 growth inh	LASV entry inh	StopGo reporter	NS1 function inh	MARV entry inh	Cruzain inh Det
COc1ccc(N2C(=O)CC(N(CCc3ccc(OC)c(OC)c3)C(=S)Nc3ccccc3)C2=O)cc1 (configuration not stated)	?	-11%	24%	-11%	-3%	1%	10%	-0.7%
O=C(O)c1ccc(N/N=C/C2=C(N3CCOCC3)C(=C\c3ccccc3)/CC2)cc1	.	-1%	?	?	-25%	19%	-7%	.

The list itself (from the top)
SMILES	Cruzain noTriton	SARS PLpro yeast	RE007 growth inh	LASV entry inh	StopGo reporter	NS1 function inh	MARV entry inh	Cruzain inh Det
COc1ccc(N2C(=O)CC(N(CCc3ccc(OC)c(OC)c3)C(=S)Nc3ccccc3)C2=O)cc1 (configuration not stated)	?	-11%	24%	-11%	-3%	1%	10%	-0.7%
O=C(O)c1ccc(N/N=C/C2=C(N3CCOCC3)C(=C\c3ccccc3)/CC2)cc1	.	-1%	?	?	-25%	19%	-7%	.
O=C(Nc1ccc(OCc2cc(=O)n3c4c(sc3n2)CCCC4)cc1)c1cccc(F)c1	12%	.	.	-15%[46.1 µM]	0%	.	14%[46.1 µM]	-0.2%
O=C(Nc1ccc2c(c1)OCO2)c1cnn2c(C(F)(F)F)cc(-c3ccco3)nc12	?	-1%	2%	1%	-14%	-30%	-18%	0.8%
COc1cc(Cl)c(S(=O)(=O)NCc2cccnc2)cc1Cl	3%	3%	-8%	-12%	.	-3%	-10%	5.0%
O=C(CCC(=O)N1CC2CCCN2c2ccccc21)NCc1ccccc1Cl (configuration not stated)	-17%	.	.	-1%[46.1 µM]	-5%	.	.	-8.5%
CCOc1cccc(C2C(C(=O)c3ccc(C)o3)=C(O)C(=O)N2c2nccs2)c1 (configuration not stated)	4%	-5%	3%	23%	-7%	-5%	-2%	-8.2%
O=C(C1=NNCC1c1ccccc1)C1OC1c1ccccc1 (configuration not stated)	.	-1%	-5%	?	-3%	8%	?	.
Nn1c(SCC(=O)Nc2nccs2)nnc1-c1ccccn1	.	.	-17%	-19%	12%	.	-4%[46.1 µM]	.
CN1c2ccccc2C(C)(C)[C@]12C=Cc1cc(O)ccc1O2	3%	1%	11%	-16%	?	5%	?	-5.5%
CC1CCCN(c2ccc(C(=O)NCCc3ccccc3)cn2)C1 (configuration not stated)	-25%	-29%	13%	?	.	-52%	-18%	-6.2%
Nn1c(-c2cccs2)nc2sc3c(c2c1=O)CCCC3	?	-13%	?	?	-24%	-9%	?	-7.0%
CCOC(=O)CC1C(=O)NCCN1S(=O)(=O)c1cc(Cl)c(Cl)cc1Cl (configuration not stated)	-4%	1%	-2%	-12%	-7%	9%	1.6µM*	1.3%
O=C(CCN1C(=O)/C(=C\C=C\c2ccccc2)SC1=S)Nc1cccc(C(=O)O)c1	.	2%	-10%	.	27%	6%	.	.
O=C(Cc1ccc(-c2ccccc2)cc1)N1CCOCC1	-7%	1%	-8%	0%	39%[activator]	-12%	21%	-7.1%
O=C(Nc1ccc2ccccc2n1)Nc1ccccc1F	.	1%	-1%	.	31%	1%	.	.
Cc1ccc(SCC(=O)NCC(C)C)cc1	1%	-4%	4%	11%	24%	2%	6%	0.1%
COC(=O)C12OCC34C(CC5C(C)=C(O)C(=O)CC5(C)C3C(O)C1O)OC(=O)C(OC(=O)/C=C(\C)C(C)C)C24 (configuration not stated)	.	.	?	.	-31%	.	.	.
C=CCn1c(Cc2ccccc2)nnc1SCc1nc2ccccc2c(=O)[nH]1	.	-3%	-28%	3%[46.1 µM]	13%	.	4%[46.1 µM]	.
COc1ccc(C2=NO[C@@H]3[C@@H]4C[C@@H]([C@H]5C(=O)N(C)C(=O)[C@@H]45)[C@H]23)c(OC)c1	.	1%	5%	?	1%	5%	21%[46.1 µM]	.
COC(=O)Nc1ccccc1C(=O)N1CCN(c2ccc(C)cc2)CC1	-9%	-10%	16%	8%	14%	20%	-13%	0.3%
CSc1nc2nc(-c3ccccc3)cc(=O)n2[nH]1	-12%	-1%	-28%	39%	29%	-2%	8%	0.4%
Cc1ccnc(NC(=O)CCS(=O)(=O)c2ccccc2)c1	.	?	-17%	3%	-4%	2%	14%[46.1 µM]	.
CC(C)Cn1c(N)cc(=O)n(C)c1=O	.	-1%	11%	13%[46.1 µM]	-13%	.	5%[46.1 µM]	.
CCCCc1cn([C@@H](CCCCN)C(=O)N2CCNCC2)nn1	.	0%	10%	.	17%	-5%	.	.
CCOC(=O)c1cc(-c2ccccc2)n(CCC(=O)NCCc2ccc(C)cc2)c1C	-4%	.	.	-25%[46.1 µM]	-22%	.	.	-0.8%
CN1N=C(C(=O)N2CCCC(Nc3ccc(F)c(F)c3)C2)CCC1=O (configuration not stated)	.	0%	2%	-1%	9%	4%	-21%	.
CCOc1ccccc1C(=O)NC1(C(F)(F)F)C(=O)Nc2c1c(=O)[nH]c(=O)n2-c1ccccc1 (configuration not stated)	21%	.	.	-18%[46.1 µM]	?	.	?	-2.2%
O=C(NC(=S)N1CCOCC1)c1ccc(F)cc1	.	-2%	-12%	.	-10%	0%	.	.
CCOC(=O)c1cc(-c2ccc(Cl)cc2)nc2c1c(=O)[nH]c(=O)n2CCOC	.	-4%	2%	?	-10%	.	?	.
Nc1nc2ccccc2n1/N=C/c1ccc(Br)cc1	7%	-13%	-44%	20%	47%[activator]	-15%	20%	-12%
O=C(NCCc1ccccc1)c1ccc2nc(-c3ccco3)c(-c3ccco3)nc2c1	?	-3%	-19%	?	-18%	14µM*	?	16µM*
CC(=O)N1CCCc2cc(S(=O)(=O)CCC(=O)N3CCN(c4cccc(C)c4)C(C)C3)ccc21 (configuration not stated)	?	?	1%	.	?	-22%	.	-0.4%
COc1cccc(N(C(=O)CNC(=O)c2ccco2)C(C(=O)NC2CCCCC2)c2cccnc2)c1 (configuration not stated)	.	1%	-10%	11%[46.1 µM]	-12%	-2%	12%[46.1 µM]	.
COC(=O)c1cn(CC(=O)Nc2ccc(F)cc2)c2ccccc12	.	1%	10%	14%[46.1 µM]	-11%	.	-20%[46.1 µM]	.
Cc1ccsc1/C=N\Nc1cn[nH]c(=O)c1Cl	.	1%	-11%	17%[46.1 µM]	14%	.	?	.
COc1cc(OC)cc(C(=O)NCCNc2nc3cc(C)cc(C)c3cc2C#N)c1	.	1%	-14%	.	-22%	9%	.	.
O=C(COc1ccccc1Cl)Nc1nc(-c2ccc(F)cc2)ns1	?	.	.	-2%[46.1 µM]	-13%	.	9%[46.1 µM]	1.8%
COc1cc(Nc2nc(SCC(=O)c3ccc(Br)cc3)nc3ccccc23)cc(OC)c1	?	.	.	-22%[46.1 µM]	?	.	.	1.8%
Clc1ccc(Cn2ncc3c(NCCN4CCOCC4)ncnc32)cc1	-7%	-1%	9%	0%	?	-1%	-12%	-0.2%
O=[N+]([O-])c1ccccc1OCC(O)CNC1CCCC1 (configuration not stated)	.	6%	-1%	.	3%	-61%	.	.
Cn1c(-c2ccc(C=O)s2)nc2ccccc21	-6%	1%	-25%	?	21%	-164%	10%	-5.3%
COc1cc(C(=O)OCCC(C)C)cc(OC)c1O	.	-2%	1%	.	3%	0%	.	.
O=C(CN1CCOc2ccccc21)N1CCCC1	-9%	17%	0%	-21%	-11%	2%	10%	1.1%
CC(=O)Nc1cccc(NC(=O)C2CCCN2C(=O)Nc2ccccc2C)c1 (configuration not stated)	3%	-1%	6%	?	.	-5%	2%	-1.3%
COc1ccc(C(=O)Nc2cc(-c3nn4c(C)nnc4s3)ccc2C)cc1	-5%	6%	5%	.	-24%	2%	.	1.2%
O=C(CCc1nc2ccccc2c(=O)[nH]1)Nc1nnc(SCc2ccc(F)cc2)s1	.	-4%	0%	-6%[46.1 µM]	-17%	.	-20%	.
CCC1CCCCN1CC(=O)c1ccc(OC(F)F)cc1 (configuration not stated)	12%	7%	4%	2%	-12%	-2%	-7%	1.8%
Cc1cc2cc(C(c3nnnn3CC3CCCO3)N3CCCc4ccccc43)c(=O)[nH]c2cc1C (configuration not stated)	28%	-2%	-7%	?	-15%	5µM*	?	-8.2%
CN(Cc1ccccc1)C(=O)C1CCC(CNS(=O)(=O)c2cccc3cccnc23)CC1 (configuration not stated)	.	0%	6%	.	-26%	-32%	.	.

(list continues)
SMILES	Cruzain noTriton	SARS PLpro yeast	RE007 growth inh	LASV entry inh	StopGo reporter	NS1 function inh	MARV entry inh	Cruzain inh Det
C[C@@H](C(=O)N=c1sc2ccccc2n1C)N1C(=O)C2CC=CCC2C1=O (some centres not stated)	.	.	2%	?	?	.	-13%[46.1 µM]	.
CCOC(=O)/C=c1\s/c(=C\c2ccc3cc(OC)ccc3c2)c(=O)n1CC(=O)NCC1CCCO1 (configuration not stated)	0%	4%	-7%	13%	-16%	2%	?	-0.2%
C#CCOc1ccc(Cl)cc1/C=C1/C(=O)ON=C1C	.	-1%	10%	-19%[46.1 µM]	-13%	4%	17%[46.1 µM]	.
COc1ccccc1-c1nn(Cc2ccccc2)cc1/C=C/C(=O)O	.	0%	-3%	.	-4%	1%	.	.
O=C(CCCN1C(=O)/C(=C\c2cccs2)SC1=S)Nc1cccnc1	-17%	-10%	-6%	-14%	0%	10%	-21%	-2.6%
CCOc1ccc2nc(SCC(=O)N(CCOC)c3c(N)n(Cc4ccccc4)c(=O)[nH]c3=O)[nH]c2c1	.	.	-9%	-4%	-7%	.	-1%	.
CCOC(=O)N1CCC(=NNS(=O)(=O)c2cccc([N+](=O)[O-])c2)CC1	-2%	2%	-13%	-7%	-18%	1%	-6%	-0.5%
CN1C(=O)C(=O)/C(=C(/O)c2ccccc2)C1c1ccccc1 (configuration not stated)	.	3%	-4%	.	-12%	11%	.	.
COC(=O)CSC1=C(C#N)C(c2ccc(C)o2)CC(=O)N1 (configuration not stated)	.	1%	18%	?	-20%	-1%	1.8µM*	.
CC(C)COc1ccc(C(=O)N2CCN(CCc3ccncc3)CC2)cc1	9%	.	.	-17%[46.1 µM]	-13%	.	8%[46.1 µM]	-0.2%
